HCMV NEC inh: inhibitors of HCMV UL50-UL53 interaction, biochemical, HTRF; HCMV UL50-UL53 nuclear egress complex (human cytomegalovirus); normalized percent inhibition; inhibition, % (test concentration not listed); hit rate 0.15% among 190,000; AID 1918969, 2023;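 active = both replicates at 50% or more, plus weaker picks with an unusually low signal ratio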;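 also: stock transfer was 100 nL into about 20 µL; 0% = negative control wells and 100% = wells with untagged competitor protein; inactives centre near -12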
GIV-Gai inh: inhibitors of GIV peptide binding to Galpha-i3, primary screen, biochemical, fluorescence polarization, FITC-GIV GBA peptide, rat Galphai3. 90 min; hits give low values; scaled: aluminum fluoride 0%, vehicle 100%. percent of control (FP), % (test concentration not listed). AID 1224905, 2016. hit rate 0.42% among 210,000. Guanine nucleotide-binding protein G(i) subunit alpha-3 (Rattus norvegicus), P08753;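 active = replicate mean at 85% of control or lower, very high polarization wells dropped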;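 also: wells of about 15 µL received 100 nL stock; the first replicate is given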
Target sequence (P08753 whole entry, looked up): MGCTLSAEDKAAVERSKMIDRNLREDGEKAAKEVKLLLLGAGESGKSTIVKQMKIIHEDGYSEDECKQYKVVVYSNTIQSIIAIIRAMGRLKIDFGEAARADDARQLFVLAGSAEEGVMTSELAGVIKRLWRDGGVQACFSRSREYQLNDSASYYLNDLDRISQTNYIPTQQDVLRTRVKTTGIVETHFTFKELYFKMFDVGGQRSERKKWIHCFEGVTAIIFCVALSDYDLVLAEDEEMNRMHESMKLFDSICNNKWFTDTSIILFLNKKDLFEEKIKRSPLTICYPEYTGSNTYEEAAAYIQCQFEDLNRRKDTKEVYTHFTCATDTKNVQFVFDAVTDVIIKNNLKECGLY
Sa growth inh: S. aureus growth inhibition at 42 and 30 °C, primary screen, LtaS inhibitor project, RN4220, two temperatures. hit rate 0.53% among 170,000. AID 720641, 2013. relative growth, % (concentration not given with the values). OD600, 20 h, 42 °C; hits give low values;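 active = growth at 42 °C up to 50% and 20 or more points under that at 30 °C, or under 10% at both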;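 also: 300 nL library stock went into each well; scaled to the means of positive and negative controls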
Sa growth inh second temp: recorded beside Sa growth inh, whose call it bears; relative growth, %; measured here: growth at 30 °C;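 optical density after 20 h as mean of two plates; 100% = untreated growth and lower means inhibition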
Active calls of the source: *; x = no result given.

# | Structure | HCMV NEC inh | GIV-Gai inh | Sa growth inh | Sa growth inh second temp
1 | COc1ccc(NS(=O)(=O)c2cc3[nH]c(=O)c(=O)[nH]c3cc2C)cc1Cl | x | 103 | 84 | 76
2 | O=C(Cn1c(=O)n(-c2ccccc2)c(=O)c2ccc(C(=O)NCc3ccc4c(c3)OCO4)cc21)Nc1ccc(F)c(Cl)c1 | -15 | 100 | 97 | 94
3 | O=C(c1cccnc1)N(Cc1ccccc1)C1(C(=O)Nc2ccccc2)CCCCC1 | -14 | x | 102 | 90
4 | CCCc1cc(SCC(=O)OC)n2c(nc3ccccc32)c1C#N | -25 | 102 | 85 | 80
5 | NC(=O)C1CCN(CC(O)COc2ccccc2F)CC1 (configuration not stated) | -8 | x | 86 | 93
6 | Cc1ccc(NC(=O)c2cc(S(=O)(=O)N3CCC4(CC3)OCCO4)ccc2F)cc1Cl | x | 106 | 103 | 92
7 | Cc1ccc(C)n1CCOC(=O)c1cccc(S(=O)(=O)NCc2ccccc2)c1 | -26 | x | 76 | 82
8 | N=C1/C(=C2\NC(c3ccc(Br)cc3)=CS2)CC(=O)N1C1CC1 | -15 | x | 91 | 90
9 | Cc1cc(C)c(/C=C/c2onc(C)c2S(=O)(=O)N2CCCC(C(=O)N(C)C3CCCCC3)C2)c(C)c1 (configuration not stated) | -8 | 103 | x | x
10 | O=S(=O)(NCC1COc2ccccc2O1)c1ccc2c(c1)CCO2 (configuration not stated) | -4 | 106 | 107 | 95
11 | COc1ccc(-c2cc(C)no2)cc1S(=O)(=O)NC1CCC(C)CC1 (configuration not stated) | x | 100 | 87 | 88
12 | O=C(Nc1ccc(Br)cc1)N1CCC(CN2CCCC2)CC1 | x | 108 | 103 | 85
13 | CCN1CCN(C(=O)c2cc(Nc3ccc(C)c(C)c3)nc3ccccc23)CC1 | -29 | 105 | 92 | 87
14 | Cc1ccc(CNC(=O)Cn2ncc3c(C)n(Cc4ccc(Cl)cc4)c(C)c3c2=O)cc1 | -6 | 105 | 109 | 86
15 | C[N+]1(CC(O)CN2CCCC2=O)CCCCCC1 (configuration not stated) | 1 | x | 71 | 96
16 | O=C(O)CSCCc1ccncc1 | x | 104 | 81 | 88

Entries listed so far that contain an aryl methoxy group, in the order listed:
# | Structure | HCMV NEC inh | GIV-Gai inh | Sa growth inh | Sa growth inh second temp
1 | COc1ccc(NS(=O)(=O)c2cc3[nH]c(=O)c(=O)[nH]c3cc2C)cc1Cl | x | 103 | 84 | 76
11 | COc1ccc(-c2cc(C)no2)cc1S(=O)(=O)NC1CCC(C)CC1 (configuration not stated) | x | 100 | 87 | 88

(listing goes on)
# | Structure | HCMV NEC inh | GIV-Gai inh | Sa growth inh | Sa growth inh second temp
17 | N#Cc1cccc(C(=O)Nc2ccccc2)c1 | -8 | x | 94 | 95
18 | CSc1nnc(C2CCCN2CC(=O)Nc2ccc(Oc3ccccc3)cc2)n1C (configuration not stated) | 1 | 99 | 74 | 84
19 | COC(=O)CCc1sc(Nc2ccccc2)nc1-c1ccc(OC)cc1 | -6 | 96 | x | x
20 | CC1=NCCN1S(=O)(=O)c1ccc(I)cc1 | -3 | 104 | 99 | 93
21 | Cn1c(-c2ccccc2)c(CCO)c2ccccc21 | -26 | 103 | 113 | 70
22 | O=C1CCc2cc(S(=O)(=O)NCC3CCCO3)cc3c2N1CC3 (configuration not stated) | -7 | 100 | 103 | 93
23 | CNC(=O)COc1c(C)cc(SC)cc1C | -33 | 105 | 114 | 97
24 | CCOC(=O)CCc1c(C(=O)OCC)[nH]c2ccccc12 | 1 | 106 | 95 | 95
25 | O=C(Nc1ccccc1)OCCOc1ccccc1 | 8 | 109 | 90 | 116
26 | CCCN1C/C(=C\c2ccc(N(C)C)cc2)C(=O)/C(=C/c2ccc(N(C)C)cc2)C1 | -29 | 221 | 94 | 85
27 | COc1ccc(O)c(C(=O)c2cnn(C(=O)CN3CCCC3=O)c2)c1 | -9 | x | 97 | 94
28 | O=C(c1cnc(N2CCOCC2)c2ccccc12)N1CCN(c2ccccc2F)CC1 | x | 104 | 106 | 82
29 | COC(=O)c1cccc2c1NC(c1cccnc1)C1CC=CC21 (configuration not stated) | -17 | 98 | 95 | 46
30 | O=C(C1CCN(S(=O)(=O)c2ccccc2)CC1)N1CCc2ccccc21 | -28 | 104 | 96 | 101
31 | COc1ccc(CNc2nc(-c3ccc(OC)c(OC)c3)cc(C(F)(F)F)n2)cc1 | -5 | 98 | 80 | 77
32 | CC1CCN(C(=O)COc2ccc(C(C)C)cc2)CC1 | -15 | 102 | 96 | 79
33 | O=c1oc(-c2ccco2)nc2sc3c(c12)CCCCC3 | -16 | 102 | x | x
34 | O=C(NCC(c1cccnc1)N1CCc2ccccc2C1)C(=O)NC1CC1 (configuration not stated) | -16 | 104 | x | x
35 | CC(C)(C)c1ccc(-c2nc(=O)[nH]n2-c2ccccc2)cc1 | 0 | 102 | 107 | 98
36 | CC(=O)Nc1cccc(N2CCn3c(nc4cc(Cl)ccc43)C2)c1 | 0 | 97 | x | x
37 | COc1ccc(-n2nnc3c(sc4nc(C)ccc43)c2=O)cc1 | -37 | 110 | x | x
38 | CC(=O)Nc1ccccc1OC(=O)c1cccc(C)c1 | -36 | 104 | 113 | 102
39 | CCN(Cc1ccccc1)C(=O)Cn1ncc2c3ccccc3n(Cc3c(C)cc(C)cc3C)c2c1=O | x | 101 | 116 | 90
40 | OCCN1CCN(C(c2ccc(Cl)cc2Cl)c2sc3nc(-c4ccco4)nn3c2O)CC1 (configuration not stated) | x | 96 | 140 | 88
41 | CSc1ncc(C(=O)NC2CC2)c(N)n1 | -36 | 99 | x | x
42 | Cc1cc(C)cc(Nc2cc(C(=O)NC3CCCC3)c3ccccc3n2)c1 | x | 103 | 89 | 80
43 | CCc1noc2nc(C)nc(N3CCCC(C(=O)NC(C)C)C3)c12 (configuration not stated) | 2 | 100 | x | x
44 | Cc1ccc(CNc2ncnc3onc(C)c23)cc1 | x | 105 | 105 | 103
45 | O=S(=O)(c1ccc(-c2ccon2)s1)N(Cc1ccccn1)Cc1ccccn1 | -73 | 98 | 99 | 80
46 | CN(C(=O)Cn1cc(C#N)c2ccccc21)c1ccccc1 | -11 | x | 102 | 82
47 | CCCCN(C)C(=O)Cn1ncc2c([nH]c3ccc(C)cc32)c1=O | x | 104 | 94 | 93
48 | CCCCNc1nc(Oc2ccc(=O)n(C)n2)nc(N(C)C)n1 | -36 | 99 | 92 | 87
49 | CC(=O)NCCC(=O)Nc1ccc(C(F)(F)F)cc1 | -12 | x | 86 | 91
50 | COc1ccc(O)c(C2=Nc3ccccc3N=C(c3ccccc3)C2)c1 | 13 | 103 | 106 | 101
51 | CC1(C)CC(=O)C2=C(C1)NC(Nc1nc3ccccc3o1)=NC21CCCCC1 | 0 | 98 | 99 | 104
52 | CNC(=S)NC1=NCCS1 | 1 | x | 87 | 83
53 | COc1ccc(Cl)cc1NC(=O)c1ccc(CN2C(=O)CCn3nc(C)cc32)cc1 | x | 101 | 55 | 70
54 | Cc1sc2nc(/C=C/c3ccco3)oc(=O)c2c1C | -9 | 79* | x | x
55 | Cc1c(O)nc(N)[nH]c1=O | -13 | 104 | 89 | 89
56 | COc1ccc(-c2cc(C(F)(F)F)nc(SCC(=O)N3CCCCCC3)n2)cc1OC | x | 99 | 111 | 86
57 | COc1cccc(CNC(=O)C2CCCN(c3ncnc4onc(-c5ccc(F)cc5)c34)C2)c1 (configuration not stated) | x | 102 | 106 | 86
58 | COc1ccc(CNC(=O)c2ccc(CSc3nc4cccnc4n3Cc3ccccc3)cc2)cc1 | -10 | 104 | x | x
59 | Cc1nc2ccccc2n(CCC(=O)N2CCN(c3ccccn3)CC2)c1=O | -26 | 104 | x | x
60 | Cc1cccc(CC(=O)c2c[nH]c3ccccc23)c1 | 4 | 107 | 96 | 90
61 | Cc1ccc(C(=O)COC(=O)CCC(=O)Nc2ccc(Oc3ccccc3)cc2)cc1 | -4 | 113 | 106 | 94
62 | CC(=O)NC(C)c1nc(-c2ccccc2Cl)no1 (configuration not stated) | -13 | 97 | x | x
63 | CC(NC(=O)c1nn(C)c(=O)c2ccccc12)c1ccccc1 (configuration not stated) | 1 | 111 | 80 | 90
64 | COc1ccc(-c2cc(OC(=O)c3ccc(C)cc3)c3c(C)oc(C)c3c(=O)c2)cc1OC | -53 | 117 | x | x

Rewritten with values under each structure: part of the list above.
Order of values – HCMV NEC inh	GIV-Gai inh	Sa growth inh	Sa growth inh second temp
[64] COc1ccc(-c2cc(OC(=O)c3ccc(C)cc3)c3c(C)oc(C)c3c(=O)c2)cc1OC
    -53	117	x	x
[62] CC(=O)NC(C)c1nc(-c2ccccc2Cl)no1 (configuration not stated)
    -13	97	x	x
[63] CC(NC(=O)c1nn(C)c(=O)c2ccccc12)c1ccccc1 (configuration not stated)
    1	111	80	90

Next section.
# | Structure | HCMV NEC inh | GIV-Gai inh | Sa growth inh | Sa growth inh second temp
65 | Cc1[nH]c(=O)[nH]c(=O)c1N(C)C | -7 | 95 | 96 | 92
66 | COc1ccc(C(Nc2ccccn2)c2ccc3ccc(C)nc3c2O)cc1C (configuration not stated) | -42 | 105 | 114 | 81
67 | CCN(CC)S(=O)(=O)c1ccc2oc(=S)n(CN(C(C)C)C(C)C)c2c1 | -20 | x | 69 | 93
68 | O=C(CCCn1c(=O)c2cccn2c2ccc(Br)cc21)NC1CCCC1 | -7 | 102 | x | x
69 | Nc1ncc(S(=O)(=O)NCc2ccccc2F)cn1 | x | 103 | 90 | 84
70 | CC1=C(C(=O)Nc2cccnc2)C(c2cccc(O)c2)n2nc(SCc3ccccc3)nc2N1 (configuration not stated) | x | 106 | 124 | 71
71 | CCCNC(=O)Nc1cccc(-c2noc(-c3cccc(N(C)C)c3)n2)c1 | -18 | 105 | x | x
72 | NC(=O)C1CCN(C(=O)CCCc2nnc3n4nc(-c5ccccc5)nc4c4ccccc4n23)CC1 | -14 | 103 | 106 | 87
73 | CCn1cc2nc(SCc3cc(F)cc(F)c3)n(Cc3ccccc3F)c(=O)c2n1 | -15 | 103 | x | x
74 | O=C(O)CSc1ncnc2c1oc1ccccc12 | 2 | x | 95 | 90
75 | CCOC(=O)c1c(C)oc2ccc(N(C(=O)c3ccncc3)S(=O)(=O)c3ccc(F)cc3)cc12 | -11 | 106 | 105 | 98
76 | Cc1cccn2c(=O)c3cc(C#N)c(=O)n(Cc4ccco4)c3nc12 | -54 | 102 | 89 | 82
77 | CCN(CC)S(=O)(=O)c1ccc(N2Cc3ccccc3C2=N)cc1 | -9 | x | 100 | 95
78 | CCn1nc(C)c(Br)c1C(=O)Oc1ccc(Cl)cc1 | -10 | 102 | 109 | 100
79 | Cn1c(=O)c2sccc2n2c(CCC(=O)N3CCN(c4ccccn4)CC3)nnc12 | -17 | 99 | x | x
80 | N=C1C(c2nc3ccccc3[nH]2)=C(O)CN1NC(=O)COc1cccc(F)c1 | -11 | x | 57 | 76

Full records from above.
O=C(O)CSc1ncnc2c1oc1ccccc12 as listed: HCMV NEC inh = 2; GIV-Gai inh = x; Sa growth inh = 95; Sa growth inh second temp = 90
CCOC(=O)c1c(C)oc2ccc(N(C(=O)c3ccncc3)S(=O)(=O)c3ccc(F)cc3)cc12 as listed: HCMV NEC inh = -11; GIV-Gai inh = 106; Sa growth inh = 105; Sa growth inh second temp = 98
N=C1C(c2nc3ccccc3[nH]2)=C(O)CN1NC(=O)COc1cccc(F)c1 as listed: HCMV NEC inh = -11; GIV-Gai inh = x; Sa growth inh = 57; Sa growth inh second temp = 76

(cont.)
# | Structure | HCMV NEC inh | GIV-Gai inh | Sa growth inh | Sa growth inh second temp
81 | CCOC(=O)c1cn(CC(=O)Nc2cccc(OC)c2)nn1 | 3 | 98 | 105 | 91
82 | COc1ccc(C(=O)NC(C(=O)Nc2ccc3c(c2)OCO3)C(C)C)cc1 (configuration not stated) | -20 | x | 90 | 94
83 | CC1CCCN(c2ncnc3c2cnn3-c2ccc(F)cc2)C1 (configuration not stated) | x | 103 | 120 | 90
84 | O=C(Nc1ccccc1)Oc1ccc2sc(=O)oc2c1 | 0 | 108 | 69 | 48
85 | O=C1N=c2ccc(Br)cc2=C1c1sc(=S)n(-c2cccc(Br)c2)c1O | x | 103 | 126 | 80
86 | Cc1ccc(C)n1-c1ccccc1C(=O)O | 30 | 5.7* | 65 | 79
87 | COc1ccc(NC(=O)Nc2cccc(OCc3cc(=O)n4cccc(C)c4n3)c2)c(OC)c1 | x | 99 | 89 | 92
88 | Cc1cccc(OCCSc2nc3ccc(NC(=O)COc4ccccc4)cc3s2)c1 | 9 | 96 | 82 | 95
89 | Cc1ccc(-n2[nH]c(C)c(C=O)c2=O)cc1C | -14 | 101 | 128 | 102
90 | Cc1ccc(-n2ncc3c(=O)n(Cc4cccc(Cl)c4)cnc32)cc1C | -24 | 105 | 107 | 87
91 | Cc1ccoc1C(=O)Nc1cccc(Oc2ccccc2)c1 | -6 | 101 | 95 | 54

Random excerpt: 3 records from the list
# | Structure | HCMV NEC inh | GIV-Gai inh | Sa growth inh | Sa growth inh second temp
86 | Cc1ccc(C)n1-c1ccccc1C(=O)O | 30 | 5.7* | 65 | 79
80 | N=C1C(c2nc3ccccc3[nH]2)=C(O)CN1NC(=O)COc1cccc(F)c1 | -11 | x | 57 | 76
18 | CSc1nnc(C2CCCN2CC(=O)Nc2ccc(Oc3ccccc3)cc2)n1C (configuration not stated) | 1 | 99 | 74 | 84

High-throughput results deposited in PubChem BioAssay by ICCB-Longwood Screening Facility, Harvard Medical School.
